High-throughput results deposited in PubChem by ICCB-Longwood Screening Facility, Harvard Medical School.
Sa growth inh – inhibitors of Staphylococcus aureus growth at 42 °C; S. aureus RN4220 growth, OD600, 20 h; hits give low values; relative growth, % (no concentration beside the values); 170,000 tested, 0.53% active;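 active = growth at 42 °C up to 50% and 20 or more points under that at 30 °C, or under 10% at both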;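 note: 300 nL library stock went into each well; scaled to the means of positive and negative controls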
GIV Gai3 FP – blocks GIV peptide binding to rat Galpha-i3 | P08753 | Galpha-i3/FITC-GIV peptide fluorescence polarization, 90 min; hits give low values; scaled: aluminum fluoride 0%, vehicle 100% | percent of control (FP), % (no concentration beside the values) | 210,000 tested, 0.42% active | AID 1224905;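 active = replicate mean at 85% of control or lower, very high polarization wells dropped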;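 note: wells of about 15 µL received 100 nL stock; the first replicate is given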
Target sequence (P08753 whole entry, looked up): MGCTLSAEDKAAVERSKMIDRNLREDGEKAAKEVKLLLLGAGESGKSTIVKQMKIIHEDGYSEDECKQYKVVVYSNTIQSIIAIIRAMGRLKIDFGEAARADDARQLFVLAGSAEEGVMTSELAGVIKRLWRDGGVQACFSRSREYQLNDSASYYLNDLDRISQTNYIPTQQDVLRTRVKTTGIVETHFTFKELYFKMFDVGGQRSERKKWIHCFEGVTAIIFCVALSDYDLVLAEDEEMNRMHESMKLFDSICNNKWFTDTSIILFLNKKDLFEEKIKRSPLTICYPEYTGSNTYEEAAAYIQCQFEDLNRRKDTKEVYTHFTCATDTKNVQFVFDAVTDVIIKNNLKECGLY
HCMV NEC inh – inhibitors of HCMV UL50-UL53 nuclear egress complex interaction; HTRF UL50-UL53 interaction, normalized percent inhibition; inhibition, % (test concentration not listed); 190,000 tested, 0.15% active; AID 1918969;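 active = both replicates at 50% or more, plus weaker picks with an unusually low signal ratio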;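 note: stock transfer was 100 nL into about 20 µL; 0% = negative control wells and 100% = wells with untagged competitor protein; inactives centre near -12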
Sa growth inh second temp – second read-out of Sa growth inh, no call of its own (marks repeat the call); relative growth, %; measured here: growth at 30 °C;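 optical density after 20 h as mean of two plates; 100% = untreated growth and lower means inhibition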
Starred values were filed as active, the others as inactive; nt = no result given; & = joins results of further samples.

SMILES	Sa growth inh	Sa growth inh second temp	GIV Gai3 FP	HCMV NEC inh
CC1CC(C)CN(C(=O)c2cc3c(s2)CCC3)C1 (stereo unspecified)	100	95	nt	-14
COc1ccc2c(c1)CC(C(=O)NCCc1ccc(S(N)(=O)=O)cc1)CO2 (stereo unspecified)	108	90	101	nt
O=C(CCSCc1cccc(Cl)c1)N1CCN(c2ccc(Cl)cc2)CC1	103	59	99	nt
O=C(Nc1ccc(Cl)cc1)Nc1ccc(SCc2nnc(-c3ccccc3)o2)cc1	nt	nt	103	-25
FC(F)(F)Cc1nc2ccccc2s1	81	96	nt	5
Cc1nc(-c2ccc(S(=O)(=O)N3CCN(c4ccccc4F)CC3)cc2)co1	98	84	104	nt
O=C(Nc1cccc2ccccc12)OC1C=CS(=O)(=O)C1 (stereo unspecified)	113	76	103	-13
CCOC(=O)CSc1ccc2nnc(CCNS(=O)(=O)c3ccc(C)cc3)n2n1	100	87	100	-33
Cn1c(SCC(=O)NCCN2C(=O)CSC2=S)nnc1C(F)(F)F	80	95	nt	-12
CC(=O)Nc1nc2ccccc2n1CCCN(C)C	nt	nt	97&103	-11&-8
COC(=O)/C=C/S(=O)(=O)c1ccc(NC(C)=O)cc1	63	33	99	nt
COc1cccc(CNC(=O)c2ccc3nc(-c4ccccc4)c(-c4ccccc4)nc3c2)c1OC	101	95	97	nt
O=C(NCCc1ccccc1)C1CCCN(c2nnc(-n3cccc3)s2)C1 (stereo unspecified)	81	78	105	nt
CCOCCCNCc1ccc(-c2ccc(F)cc2)o1	nt	nt	102	3
Oc1ccc(-c2cn3ccsc3n2)cc1	102	74	nt	-14
S=C(NCCc1ccccc1)NC1CC1	81	103	104	-10
CC(=O)N1N=C(c2nnn(-c3nonc3N)c2C)OC1c1ccc(F)c(Br)c1 (stereo unspecified)	nt	nt	98	9
Cc1cccc(OCC(=O)Nc2ccccc2SCc2cc(=O)n3oc(C)cc3n2)c1	nt	nt	103	1
COc1cc(C(=O)Nc2ccccc2C(=O)N2CCCCC2)cc(OC)c1OC	88	104	101	-19
CCOC(=O)C1=C(CSc2n[nH]c(COc3ccc(C)cc3)n2)NC(=O)NC1C (stereo unspecified)	111	77	nt	-23
CCOCCc1nn2c(=O)cc(COC(=O)c3ccc(NC(=O)C4CCCCC4)cc3)nc2s1	80	87	95	nt
Cc1sc(-c2noc(C3CCC3)n2)cc1S(=O)(=O)N1CCCC(C(=O)NC2CCCCC2)C1 (stereo unspecified)	nt	nt	107	-6
CCOC(=O)c1cc(CC)sc1NC(=O)CC1Nc2ccccc2NC1=O (stereo unspecified)	114	81	nt	-2
CC(C)Cn1c(-c2ccco2)csc1=Nc1cccnc1	121	87	nt	-53
N#Cc1ccc(NC(=O)C2CCC(C(=O)Nc3ccc(C#N)cc3)CC2)cc1 (stereo unspecified)	83	100	106	-29
SMILES	Sa growth inh	Sa growth inh second temp	GIV Gai3 FP	HCMV NEC inh
CCc1nn(CC(=O)NCCc2ccc(S(N)(=O)=O)cc2)c(=O)c2cc3sccc3n12	102	90	99	-14
CCOC(=O)C1CCN(C(c2ccc(C)cc2)c2sc3nc(-c4ccco4)nn3c2O)CC1 (stereo unspecified)	136	78	100	nt
CCOC(=O)c1ccc(N2C(=O)NC(=O)/C(=C/c3ccc(OC)cc3OC)C2=O)cc1	nt	nt	108	2
CC(NC(=O)Nc1cccc(Cl)c1)c1c(-n2cccc2)sc2c1CCCC2 (stereo unspecified)	nt	nt	106	-14
COc1cc(-c2nc(N3CCC(C)CC3)c3ccccc3n2)cc(OC)c1OC	nt	nt	101	-11
CN(C)/C=C1\C(=O)N(c2ccc(F)cc2F)C(c2cccnc2)S1(=O)=O (stereo unspecified)	94	84	104	-52
COc1cc(OC)c(NC(=O)Cn2c(=O)oc3cc(S(=O)(=O)N4CCCC4)ccc32)cc1Cl	157	70	100	nt
COc1ccc(CCNc2ncnc3c2nnn3C)cc1OC	109	91	97	nt
CC(C)CCNC(=O)c1cc(=O)c2ccccc2o1	78	68	nt	-35
COc1ccc(Cc2nnc3sc(Cc4ccc(Cl)cc4)nn23)cc1	nt	nt	116	0
Cn1ccnc1-c1nc2ccccc2n(CC(=O)OCc2ccc(C#N)cc2)c1=O	73	90	nt	-39
O=c1cc[nH]cc1-c1ccc(Cl)cc1	-0.8*	-0.2*	nt	-8
O=C(CN1C(=O)CSCC1=O)Nc1ccc(Cl)cc1	118	87	101	-23
Cc1nnc(SC(C)C(=O)NC2CCCCC2)[nH]c1=O (stereo unspecified)	101	92	107	-24
CC(C)(C)c1cc(N)n(-c2ccc(Br)cc2)n1	84	79	95	-4
CCOC(=O)c1cc(OC(=O)c2cc(Cl)ccc2OC)n(-c2ccccc2)n1	88	88	102	-30
COc1cc2ncnc(N3CCN(C)CC3)c2cc1OC	94	87	103	-4
CCOc1ccccc1CN1CCN(S(=O)(=O)c2ccccc2)CC1	106	102	108	34
CCSc1nc2ccccc2n1CC(=O)NCc1ccc(OC)cc1	100	88	nt	-6
Cn1c(=O)n(C)c2cc(N3CCCCC3)c(NC(=O)c3sc4ccccc4c3Cl)cc21	nt	nt	100	-31
Cc1ccc(Nc2nc(N)nc(CSc3ccc(F)c(Cl)c3)n2)cc1	83	74	nt	-7
Cc1ccccc1OCC1CN(CN2CCC(C)CC2)C(=O)O1 (stereo unspecified)	93	91	100	nt
COc1cc2c(=O)oc(-c3cccs3)nc2c(OC)c1OC	99	84	95	nt
CC1CCN(C(=O)COC(=O)c2ccc3ccccc3n2)CC1	118	85	nt	-130
Brc1ccc(Nc2nc(-c3ccncc3)nc3ccccc23)cc1	nt	nt	104	-3

Quoted at random: 4 compounds from above
SMILES	Sa growth inh	Sa growth inh second temp	GIV Gai3 FP	HCMV NEC inh
CCOC(=O)c1cc(OC(=O)c2cc(Cl)ccc2OC)n(-c2ccccc2)n1	88	88	102	-30
COc1cc2c(=O)oc(-c3cccs3)nc2c(OC)c1OC	99	84	95	nt
CCSc1nc2ccccc2n1CC(=O)NCc1ccc(OC)cc1	100	88	nt	-6
CC(C)(C)c1cc(N)n(-c2ccc(Br)cc2)n1	84	79	95	-4

Following part.
SMILES	Sa growth inh	Sa growth inh second temp	GIV Gai3 FP	HCMV NEC inh
CCn1cc(S(=O)(=O)c2ccccc2)c(=O)c2cc(F)c(N3CCCCCC3)cc21	97	91	102	nt
CCc1cc2c(=S)[nH]cnc2s1	65	65	nt	3
Cc1cc(Nc2cccc(C(F)(F)F)c2)nc2ccc(NC(=O)Cc3ccc(Cl)cc3)cc12	97	88	102	nt
CCC1CCC(NCC(C)(C)CN(C)C)CC1 (stereo unspecified)	107	112	104	-10
O=C(CSc1nnc(NC(=O)c2ccc(Cl)c(Cl)c2)s1)Nc1ccc(F)c(F)c1F	97	84	100	-10
O=C(CCC(=O)c1ccc(Cl)s1)OCc1nc2ccccc2s1	96	92	nt	-16
Cc1nc2c(c(C)nn2C(C)(C)C)c(C)c1CCC(=O)Nc1ccc(F)cc1	102	89	102	-5
COCCN(CCOC)S(=O)(=O)c1ccc(C(=O)Nc2nc3ccc([N+](=O)[O-])cc3s2)cc1	nt	nt	100	-34
C=C1/C(=C\C=C2/CCC[C@]3(C)[C@@H]([C@H](C)/C=C/[C@@H](O)C4CC4)CC[C@@H]23)C[C@@H](O)C[C@@H]1O	82&89	77&83	101	-31&6
COc1ccc2c(c1)cc1c(=O)n(CC(=O)NCCc3ccccc3)nc(C)n12	89	87	105	-8
CN(C)C(=O)c1ccc(NC(=O)Cn2nc(-c3ccccc3)c3ccccc3c2=O)cc1	106	87	101	-26
O=C(CSc1nc(-c2ccccc2)c(-c2ccccc2)o1)NCCN1C(=O)CSC1=O	90	97	nt	1
CCN(CC)S(=O)(=O)c1ccc(Cl)c(C(=O)N2CCN(c3ncccn3)CC2)c1	91	87	nt	-21
O=CN(Cc1ccco1)C1(C(=O)NC2CCCCC2)CCCCC1	132	101	109	-3
O=C(O)c1cc(-c2ccccc2)n[nH]1	91	102	105	-1
COC(=O)c1ccn(-c2nc(-c3ccco3)cc(C(F)(F)F)n2)n1	76	61	100	-68
Cc1ccc(Cn2c(C)c(CNC(C)CCc3ccccc3)c(C(=O)O)c2C)cc1 (stereo unspecified)	109	93	103	nt
O=C1CC(c2ccco2)Cc2nc(NC3CC3)ncc21 (stereo unspecified)	84	91	98	nt
CCCC(=O)Nc1cc(C(=O)NC2CCCCC2C)ccc1S(=O)(=O)c1ccc(C)cc1 (stereo unspecified)	96	87	102	nt
CC(=O)OC1CC2C(CCCC2(C)C)C2C(=O)C(O)C(C(C)C)C(=O)C12 (stereo unspecified)	66	64	nt	-1
CN1CCN(NC(=O)CN(C)S(=O)(=O)c2cc(Cl)ccc2Cl)CC1	98	96	100	-4
O=C(CSc1nc2c(c(C(F)(F)F)n1)CCCCC2)NCCC1=CCCCC1	101	89	104	nt
CC(=O)NC1C(=O)N(C)N=C1c1ccccc1 (stereo unspecified)	107	78	109	nt
Cc1cccnc1NC(=O)C1CCCN(c2ccc3cc(S(=O)(=O)N4CCCC4)ccc3n2)C1 (stereo unspecified)	nt	nt	110	-23
CC(C)NC(=O)c1ccc(S(=O)(=O)N(C)C)cc1	109	95	103	-12

Grouped by structure, the compounds so far with a furan ring, fused or not (6)
SMILES	Sa growth inh	Sa growth inh second temp	GIV Gai3 FP	HCMV NEC inh
CCOCCCNCc1ccc(-c2ccc(F)cc2)o1	nt	nt	102	3
CC(C)Cn1c(-c2ccco2)csc1=Nc1cccnc1	121	87	nt	-53
CCOC(=O)C1CCN(C(c2ccc(C)cc2)c2sc3nc(-c4ccco4)nn3c2O)CC1 (stereo unspecified)	136	78	100	nt
O=CN(Cc1ccco1)C1(C(=O)NC2CCCCC2)CCCCC1	132	101	109	-3
COC(=O)c1ccn(-c2nc(-c3ccco3)cc(C(F)(F)F)n2)n1	76	61	100	-68
O=C1CC(c2ccco2)Cc2nc(NC3CC3)ncc21 (stereo unspecified)	84	91	98	nt

Additional compounds follow.
SMILES	Sa growth inh	Sa growth inh second temp	GIV Gai3 FP	HCMV NEC inh
Cn1c(-c2ccc(N)cc2)nc2ccccc21	126	89	nt	-23
CC1=C(C(N)=O)C(c2ccc(F)cc2)n2nc(-c3ccccc3Cl)nc2N1 (stereo unspecified)	118	81	106	nt
O=C(NCC(=O)N1CCN(c2ccccc2F)CC1)c1ccco1	103	80	103	nt
Cc1ccc2c(c1)sc1nc(-c3ccc(Br)cc3)cn12	nt	nt	93	-4
Cc1cc(C)c(NC(=O)c2cc3c([nH]c2=O)CC(C)(C)CC3=O)c(C)c1	nt	nt	98	-25
Cc1ccc(CC(C#N)Sc2nnc(C(C)N3CCCCC3)n2-c2ccc(F)cc2)cc1 (stereo unspecified)	77	97	nt	0
Cc1ccc(CNC(=O)CN(c2cc(C)cc(C)c2)S(=O)(=O)c2c(C)noc2C)cc1	97	90	106	-3
Cc1ccc(C(=O)N2CCCC2)cc1-n1c(C)nc2cccnc21	nt	nt	103	13
COc1cccc(NC(=O)Nc2ccc3nc4n(c(=O)c3c2)CCC4)c1	92	108	102&96	10&1
COc1ccc(CC(=O)N2CC(=O)Nc3ccc(Br)cc3C2c2ccc(F)cc2)cc1OC (stereo unspecified)	122	97	112	20
O=C(CSc1oc(-c2ccco2)nc1S(=O)(=O)c1ccc(Br)cc1)c1ccc(Cl)cc1	96	93	103	-8
CCCNC(=S)N1CCC(C(=O)c2ccc(C)cc2)CC1	102	89	103	-34
O=C(c1cccc(S(=O)(=O)N2CCOCC2)c1)N1N=C(c2ccccc2)CC1(O)C(F)(F)F (stereo unspecified)	94	94	nt	-8
COc1ccc(-c2[nH]ncc2C(=O)NCc2cccc(Cl)c2)cc1	114	82	101&105	-24&-24
CCC(C(=O)NC1CCC(C)CC1)n1nc(C)c2sc3ccccc3c2c1=O (stereo unspecified)	108	88	99	-8
Cc1ccc(CNC(=O)Cn2c(=O)n(-c3ccccc3)c(=O)c3c2c2cc(C)ccc2n3C)cc1	122	86	107	nt
CCCN(CCC)C(=O)CC(c1ccccc1)c1cc(Br)ccc1O (stereo unspecified)	70	68	99	nt
Cc1cc(C)cc(NC(=O)CN2C(=O)c3ccccc3Sc3ccc(C(=O)N4CCCC4)cc32)c1	85	71	105	nt
